# Screening results from PubChem BioAssay.
# D2 agonist: activates the human D2 dopamine receptor | P14416 | AID 624465 | activation, % (no concentration beside the values) | 360,000 tested, 0.084% active | DiscoveRx PathHunter D2 beta-arrestin, luminescence, 90 min; 100% = 57 uM dopamine signal; in the data active = activation above about 40%; inconclusive = about 15% to 40%; inactive = below about 15%; note: compound concentration not given in the record; the text of the record calls up to 30% inactive
#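 Agonist mode: compounds alone added to overnight-plated D2 PathHunter cells for 90 min at 37 C, with 57 uM final dopamine (EC100) defining full response. Beta-arrestin recruitment detected by chemiluminescent reagent, read after 1 h at ambient temperature.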
# Sfp inh: inhibitors of Bacillus subtilis Sfp phosphopantetheinyl transferase | 310,000 tested, 3.5% active | Biochemical Sfp PPTase activity, qHTS | Potency, µM, for the others: max response, negative = inhibition, hits mostly inhibitors | AID 1490 | Q9F4F7; active = well fitted inhibition curve with a large enough effect; inconclusive = small, poorly fitted or top-dose-only effect, or another doubt; inactive = no such curve, though single readings can be large or run the other way;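 note: the enzyme is Sfp with the accession as filed and its product quenches rhodamine fluorescence; potency is the fitted concentration of half-maximal effect; 0% = enzyme reaction without inhibitor and -100% = no enzyme wells; top concentration of the series not given in the record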
#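 Step 1, compound plus 15 nM Sfp-PPTase, 15 min, room temperature. Step 2, add rhodamine-CoA (5 uM) and BHQ-2-YbbR (12.5 uM). Step 3, read 525/598 nm fluorescence at 0 and 30 min.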
# TRPV1 PAM: human TRPV1 potentiation; Q8NER1; TRPV1-expressing cells, Fluo-8 calcium influx, capsaicin EC20 potentiation; host cell line not named in the record; control for the full effect not named in the record; potentiation, % at 8.33 µM; 320,000 tested, 0.02% active; AID 540277; active means potentiation above 80%; inconclusive means 30% to 80%; inactive means below 30%; note: 0% is about no effect
#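 TRPV1-expressing cells were cultured overnight at 35.5C and loaded with Fluo-8 calcium dye for 40 to 90 min at room temperature. After a 10 s baseline, compound was added and calcium influx was read kinetically for 3 min (ex 480/em 520 nm).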
# Six1-Eya2 blk: blocks human Six1 binding to Eya2; Q15475+O00167; activity change, % (no concentration beside the values); 360,000 tested, 0.56% active; AlphaScreen GST-Six1/His-Eya2 binding, biochemical; hits give low values; control for the full effect not named in the record; AID 651725; in the data active = activity change below about -65%; inconclusive = about -30% to -65%; inactive = above about -30%; note: % is set by controls: 0 for no effect and ±100 for the full control effect; compound concentration not given in the record
# Target sequence (O00167 whole entry, looked up): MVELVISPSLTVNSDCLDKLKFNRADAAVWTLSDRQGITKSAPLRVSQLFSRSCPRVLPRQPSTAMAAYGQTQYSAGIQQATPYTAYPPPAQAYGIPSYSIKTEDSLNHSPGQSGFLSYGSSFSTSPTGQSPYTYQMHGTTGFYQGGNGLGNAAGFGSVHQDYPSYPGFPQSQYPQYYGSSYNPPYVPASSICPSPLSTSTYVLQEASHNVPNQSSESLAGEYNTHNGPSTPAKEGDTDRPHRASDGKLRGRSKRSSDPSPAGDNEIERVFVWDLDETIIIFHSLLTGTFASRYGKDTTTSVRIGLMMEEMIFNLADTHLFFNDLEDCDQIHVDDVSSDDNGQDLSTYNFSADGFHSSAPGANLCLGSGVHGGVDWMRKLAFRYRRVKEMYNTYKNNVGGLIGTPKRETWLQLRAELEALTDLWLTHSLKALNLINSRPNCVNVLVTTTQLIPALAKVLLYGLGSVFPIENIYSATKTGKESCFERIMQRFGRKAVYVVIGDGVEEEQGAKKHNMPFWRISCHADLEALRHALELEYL
# Target sequence (Q15475 whole entry, looked up): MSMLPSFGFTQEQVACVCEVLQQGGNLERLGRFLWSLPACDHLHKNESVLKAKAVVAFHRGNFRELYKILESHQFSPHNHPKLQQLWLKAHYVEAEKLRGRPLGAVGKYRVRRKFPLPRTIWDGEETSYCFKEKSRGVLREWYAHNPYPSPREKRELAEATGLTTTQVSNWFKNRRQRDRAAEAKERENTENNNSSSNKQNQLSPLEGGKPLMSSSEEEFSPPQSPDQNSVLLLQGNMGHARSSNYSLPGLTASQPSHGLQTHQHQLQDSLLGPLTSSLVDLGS
#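 GST-Six1 + His-Eya2 (5X stock: 250/500 nM); Tris pH 8.0, 300 mM NaCl, 0.05% BSA, 0.02% Tween 20; GSH donor/Ni acceptor beads; 1 h 37 °C dark; AlphaScreen readout.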
# D2 PAM: potentiates the human D2 dopamine receptor allosterically; AID 624464; 360,000 tested, 0.23% active; P14416; DiscoveRx D2 beta-arrestin cells, luminescence, 90 min; 100% = 57 uM dopamine signal; potentiation, % (concentration not given with the values); active = potentiation of 50% or more; inconclusive = 30% to 50%; inactive = 30% or less;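 note: compound concentration not given in the record; tested on top of an EC20 dose of dopamine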
#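 PathHunter D2 cells, attached overnight at 37 deg C, received compound in DMSO plus dopamine at EC20 (50 nM final) for 90 min at 37 deg C. Beta-arrestin recruitment was read as luminescence after 1 h with detection reagent at ambient temperature.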
# CtBP-E1A inh: blocks the CtBP interaction with E1A; AlphaScreen GST-E1A/His-CtBP binding, 1536-well; hits give low values; control for the full effect not named in the record; 340,000 tested, 0.49% active; AID 651724; activity change, % (concentration not given with the values); in the data active means activity change below about -65%; inconclusive means about -30% to -65%; inactive means above about -30%; note: % is set by controls: 0 for no effect and ±100 for the full control effect
#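 Homogeneous bead-based format: GST-tagged E1A captured on glutathione donor beads, His-tagged CtBP on nickel acceptor beads; compounds precede bead addition by 2 h at 37 °C.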
# PINK1 modulator: modulators of PINK1 expression | AID 624263 | Potency, µM (series often up to 76.6 µM), for inactives: at the highest dose activation (PINK1 increase), most hits filed as activators | 410,000 tested, 0.2% active | PINK1 immunofluorescence, high-content cytometry, 24 h; active = well fitted activation curve with a large enough effect; inconclusive = small, poorly fitted or top-dose-only effect; inactive = flat fitted curve, though single readings scatter; cell line not stated here;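 note: potency is the fitted concentration of half-maximal effect; % of control where 0% means no effect; nearly all actives have a fitted effect of over 65% in size; a mitochondrial uncoupler was the plate control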
#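 Compound titrations (5 concentrations, 24 h) on a stable cell line; DMSO and CCCP controls. Endpoint: fixed-cell PINK1 immunofluorescence with mitochondrial, cell and nuclear markers, scanned by microplate cytometer.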
# Starred values were filed as active, the others as inactive; ? = inconclusive; / = no result given; & = joins results of further samples; [ ] = another dose, or the depositor's remark.
SMILES,D2 agonist,Sfp inh,TRPV1 PAM,Six1-Eya2 blk,D2 PAM,CtBP-E1A inh,PINK1 modulator
CN(C(=O)COc1ccc(Br)cc1Cl)C1CCCCC1,-2.0,12.9%,5.1,-12.5,-11.2,14.2,6.3%
CSc1nc(N2CCN(Cc3ccc4c(c3)OCO4)CC2)c2ccccc2n1,0.8,-9.5%,-1.1,-10.5,-9.9,/,-1.0%
O=[N+]([O-])c1ccc(NN=CCCc2ccccc2)nc1,4.0,/,/,-25.1,-2.9,?,5.3%
Cc1cccc(CC2S/C(=N/N=C/c3ccco3)N(c3ccccc3)C2=O)c1 (stereo not given),-0.9,-0.6%,2.1,4.4,-9.3,6.3,10.3%
COc1ccc(S(=O)(=O)CCC(=O)NCCc2ccc(Cl)cc2)cc1,-1.8,3.9%,-16.8,-1.3,-9.6,-7.2,-5.1%[38.3 µM]
O=S(=O)(/N=C(/Nc1ccc(Cl)c(S(=O)(=O)Nc2ccccc2Cl)c1)c1ccc(F)cc1)c1ccccc1,-0.1&-1.0,15.8%,?,2.4&-13.4,-5.7&-4.8,-5.9&-4.0,-2.7%&3.0%
CC(NC(=O)c1ccc(C(C)(C)C)cc1)C(c1cccs1)N1CCOCC1 (stereo not given),-4.1,0.0%,-25.8,-5.8,-15.5,-2.7,2.2%
CN(C(=O)COC(=O)c1cc(-c2ccc(Cl)s2)nc2ccccc12)C1CCS(=O)(=O)C1 (stereo not given),-7.7,-3.3%,-5.7,0.0,-5.2,13.3,2.5%
COc1ccc(-n2c(SCC(=O)N3CCN(c4ccccc4)CC3)nc3c(c2=O)SCC3)cc1,-4.8,9.9%,-8.0,-1.2,-5.3,-10.7,-1.2%
CCC(CC)c1nnc(NC(=O)c2ccc3c(c2)OCO3)s1,-2.3,44.7µM*,-8.9,11.5,-6.5,0.2,1.3%
O=C(Nc1ncc(Cc2cccc(Cl)c2)s1)c1cccs1,1.8,17.8%,-3.1,4.2,-4.6,-0.7,1.6%
N=c1nc(-c2ccccc2)ccn1O,-0.9,12.1%,-2.2,-0.5,-12.7,6.9,-1.1%
O=C(NCc1ccc2c(c1)OCO2)C1CC(c2ccc(Cl)c(Cl)c2)=NO1 (stereo not given),-1.7,-6.8%,-2.1,-20.4,-4.8,-10.4,-1.8%
COc1ccc(C(=O)/C=C/NCc2ccc(F)cc2)cc1OC,0.7,6.0%,-1.5,-2.5,-2.8,-4.2,-1.6%
CCCc1cc(=O)[nH]c(SCC(=O)NCCC2=CCCCC2)n1,2.7,22.6%,0.7,5.7,11.7,-13.2,0.5%
Fc1ccc(Cn2cccc2C2=NC(c3ccccc3)CO2)cc1 (stereo not given),-1.6,1.8%,18.1,-4.0,-4.8,-11.2,-2.6%
Cc1ccccc1Nc1c([N+](=O)[O-])ccc2c1=NC1(CCCCC1)N=2,3.1,7.6%,-10.6,-14.2,4.8,-22.3,14.8%[38.3 µM]
O=C(Nc1ccc(Br)cc1)C1CCCN(C2=NS(=O)(=O)c3ccccc32)C1 (stereo not given),0.2,/,-3.1,-2.8,-1.7,-5.2,2.7%
C#CCOCCOCCOCCNc1nc(N2CCN(C(=O)Cn3cc(CCO)nn3)CC2)nc(N2CCN(C(=O)[C@H]([C@@H](C)O)n3cc(CCCCN)nn3)CC2)n1,-0.9,6.6%,-0.8,6.8,-16.6,3.6,1.0%
Cc1cc(C)nc(-n2ncc3c2CCCC3=O)n1,-2.2,1.8%,-4.3,2.9,-8.6,/,1.1%
Cc1csc(-c2cc(C(=O)NCc3ccc(F)cc3)n[nH]2)c1,-3.1,/,/,7.7,-20.6,2.8,3.9%
Cc1ccccc1NC(=O)CCC(=O)N/N=C/c1ccncc1,1.7,?,6.4,3.1,-2.7,-2.0,2.2%
Cc1nnc(SCC(=O)NC2CCCCC2)s1,-3.4,9.6%,-0.2,-0.6,-1.5,-9.2,0.5%
O=C(Nc1cnn(Cc2ccc(F)cc2)c1)c1cnn2c(C(F)F)cc(-c3ccccc3)nc12,-0.5,14.1µM*,10.5&-8.9,36.8&22.4,9.5&17.1,-6.9&24.4,11.7%&0.5%
COCCN(C(=O)c1cc2c(s1)CCCCC2)c1c(N)n(CC(C)C)c(=O)[nH]c1=O,-3.5,/,-0.9,-1.9,-3.2,/,2.5%
CCCCc1nnc(NC(=O)Cc2ccc(S(=O)(=O)N3CCOCC3)s2)s1,-1.2,/,-6.2,7.6,-9.1,/,0.3%
CCCCC1(Br)C(=O)N(c2ccccc2)N(c2ccccc2)C1=O,-3.2,/,7.5,6.3,-16.0,-14.8,-1.4%
COCCCN1C(=O)C(=O)/C(=C(/O)c2ccc(S(=O)(=O)N3CCCCC3)cc2)C1c1ccc(F)cc1 (stereo not given),2.1,-7.2%,15.1,4.1,-16.4,-2.7,-1.7%
CCOC(=O)c1oc2cccc(O)c2c1C,-0.3,-2.8%,1.6,4.3,-2.9,4.1,-1.2%
O=C(NCCN1CCOCC1)C1CC(=O)N(c2ccc(F)c(Cl)c2)C1 (stereo not given),-0.4,-5.2%,4.2,7.0,-1.9,-0.6,0.6%[38.3 µM]
OC(c1ccc(Cl)c(Cl)c1)c1ncc(-c2ccc(Cl)cc2)[nH]1 (stereo not given),2.3,/,/,-12.1,-18.4,-11.4,16.8%
COc1ccc(C(C#N)=Cc2ccc(OC)c(OC)c2)cc1,-5.9,/,/,29.7,-9.8,-2.2,1.7%
COc1ccc(-c2c(C(F)(F)F)nn(C)c2NC(=O)c2ccco2)cc1,-4.0,19.2%,?,4.6,-13.7,/,1.5%
O=C(COC(=O)c1ccc[nH]c1=O)NC1CCCCCCC1,0.1,14.3%,7.0,7.4,-0.5,-1.9,-1.0%
CC(C)(C)OC(=O)C[C@H]1C/C=C\C[C@@H](CC(=O)N[C@H](CO)Cc2ccccc2)C(=O)N2CCC[C@H]2COC1=O,1.3,/,/,6.8,-3.2,4.8,-0.8%
COc1ccc(/C=C2\N=C3CCCCCN3C2=O)cc1,-5.7,13.6%,-8.8,9.6,4.6,1.1,-0.6%
C/C(=N\NC(=O)CNc1cccc2ccccc12)c1ccccc1,-3.2,16.9%,-5.1,0.2,9.6,/,2.8%
COc1ccc2cc(C(=O)N/N=C/c3sc4ccccc4c3O)ccc2c1,2.5,10.2%,1.2,?,-12.5,?,6.5%
CCOc1ccc(-c2nnn(CC(=O)N3CCCC(C)C3)n2)cc1 (stereo not given),-0.8,4.1%,-7.2,6.7,-1.3,4.5,-0.4%
Cc1nc(N2CCc3ccccc3C2)[nH]c(=O)c1Cc1ccccc1,0.0,5.2%,-2.5,-9.3,1.3,1.0,10.8%
CCCc1nnc(NC(=O)Cn2cnc3ccccc3c2=O)s1,-1.8,9.1%,-1.1,-5.3,4.2,-6.7,/
Cc1ccc(NC(=O)C2=C(O)c3sccc3N(C)S2(=O)=O)cc1,-3.1,18.1%,-9.5,3.9,8.9,2.0,2.5%
COc1ccc2c(C=O)c[nH]c2c1,-1.1,8.5%,1.4,2.6,-8.6,6.2,-0.1%
Nc1ncc2c(n1)CC(c1ccco1)CC2=O (stereo not given),-2.3,?,4.1,-8.5,-6.4,3.4,-2.1%
COc1ccc(CNC(=O)CNC(=O)[C@@H]2Cc3ccccc3CN2)cc1,-3.4,-1.1%,?,2.1,-4.2,0.5,0.1%
C=CCn1cnc2c(NCc3ccccc3)ncnc21,3.0,-1.4%,-7.1,10.5,-2.8,1.0,0.4%
Cc1ccc(C(=O)N2CCN(c3ncccn3)CC2)o1,-3.3,8.5%,-11.9,-4.6,-10.0,4.5,0.1%
Cc1ccc(C(c2nnnn2C(C)(C)C)N2CCN(C3CCCC3)CC2)cc1 (stereo not given),-3.0,12.4%,-10.8,26.7,-22.5,0.2,-1.8%
COc1ccc(/C(C)=N/NC(=O)c2nnn(-c3nonc3N)c2-c2ccccc2)cc1,-0.7,-22.0%,-0.8,11.0,-4.9,3.5,11.6%
O=C(Nc1cccnc1)c1cccc([N+](=O)[O-])c1,-7.9,20.1%,-21.8,-0.9,-3.2,/,0.8%
COc1cccc(-c2nc(-c3cccs3)no2)c1,1.5,-7.6%,-5.5,26.5,-0.5,40.0,3.6%
CCOc1ccc(N2Cc3ccccc3C2)cc1,-2.1,3.2%,1.5,-10.9,-7.6,8.9,-0.7%
O=C(c1ccc(-c2nc3ccccc3s2)o1)N1CCN(c2ccccc2O)CC1,1.0,-1.0%,-1.7,-25.8,-5.6,-6.7,-1.0%
O=Cc1cn(CC(=O)N2CCc3ccccc32)c2ccccc12,-1.0,-3.8%,0.2,0.2,-12.4,2.2,-0.2%
Cc1cc(-c2cc(C)c(N)cc2C)c(C)cc1N,-1.9,/,/,-7.3,-4.7,-17.4,9.7%
CCCNC(=O)COC(=O)c1ccccc1OCc1ccc(Cl)cc1,-1.4,1.9%,-3.3,15.0,-18.4,7.2,0.1%
Cc1ccc(C(=O)NNC(=O)C2CCN(C(=O)OC(C)(C)C)CC2)cc1,-5.1,0.8%,-9.4,4.3,-5.9,-2.5,-0.5%
Cc1cccc2cc3c(N)c(C(=O)Nc4ccc(N5CCOCC5)cc4)sc3nc12,3.4,?,-12.5,-9.1,14.3,4.3,/
Cc1onc(-c2ccccc2)c1NC(=O)OC(C)c1cccnc1 (stereo not given),-5.4,/,/,12.1,-4.7,0.6,-0.5%
COc1cc(/C=C/C(=O)OCC(=O)N(C)C2CCS(=O)(=O)C2)ccc1OC(F)F (stereo not given),-0.5,-1.2%,0.2,-0.6,14.7,-5.4,1.1%

# Compounds were not picked by outcome; 3.7% or so of the library scored in one or more.
